Screening data from PubChem.
Cruzain Triton: qHTS Assay for Promiscuous and Specific Inhibitors of Cruzain (with detergent); Cruzipain (Trypanosoma cruzi), P25779; purified cruzain, Z-FR-AMC fluorescence, 0.01% Triton; Potency, µM, without a hit: max response, negative = inhibition, most hits filed as inhibitors; 0.43% of 200,000 active;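 further: plate controls were neutral wells for no effect and buffer without enzyme for full effect; nearly all actives have a fitted effect of over 40% in size; top concentration of the series not given in the record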
Target sequence (P25779 123-467 limits assumed): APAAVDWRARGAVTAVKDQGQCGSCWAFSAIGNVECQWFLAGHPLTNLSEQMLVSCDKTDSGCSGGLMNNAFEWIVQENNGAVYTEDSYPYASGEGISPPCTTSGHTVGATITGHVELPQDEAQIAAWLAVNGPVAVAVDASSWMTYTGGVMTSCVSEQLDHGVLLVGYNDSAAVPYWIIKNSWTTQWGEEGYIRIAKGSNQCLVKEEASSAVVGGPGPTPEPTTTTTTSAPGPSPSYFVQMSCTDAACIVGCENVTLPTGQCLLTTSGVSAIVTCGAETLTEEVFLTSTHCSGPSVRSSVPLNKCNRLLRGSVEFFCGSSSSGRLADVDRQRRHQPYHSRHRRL
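Compounds were screened in titration against cruzain (1.5 nM) with 0.01% Triton X-100 to counter colloidal aggregation. Activity was the AMC fluorescence increase over 60 s after adding 2 uM Z-FR-AMC at pH 5.5.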
Cruzain inh noDet: qHTS Assay for Promiscuous and Specific Inhibitors of Cruzain (without detergent); Cruzipain (Trypanosoma cruzi), P25779; purified cruzain, Z-FR-AMC fluorescence, no detergent; Potency, µM, without a hit: max response, negative = inhibition, most hits filed as inhibitors; 2.3% of 200,000 active;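 further: plate controls were enzyme without inhibitor for no effect and buffer without enzyme for full effect; nearly all actives have a fitted effect of over 40% in size; top concentration of the series not given in the record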
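Purified cruzain at 1.5 nM, pre-incubated 15 min with compound at room temperature in 100 mM sodium acetate pH 5.5, 5 mM DTT, 0.00005% Triton X-100. Reaction started with 2 uM Z-FR-AMC; AMC fluorescence increase over 60 s gives rate.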
SARS PLpro yeast: qHTS of Yeast-based Assay for SARS-CoV PLP; 0.19% of 330,000 active; AID 485353, 2010; Potency, µM (highest dose often 32.9 µM), without a hit: at the highest dose activity, positive = growth rescue; S. cerevisiae expressing SARS-CoV PLpro, growth rescue; control for the full effect not named in the record; active means well fitted rising curve with a large enough effect; inconclusive means small, poorly fitted or top-dose-only effect; inactive means no such curve, though single readings can be large or run the other way; further: 0% is about no effect; nearly all actives have a fitted effect of over 55% in size; growth read by luminescence after 48 h
StopGo reporter: High Throughput Screening for Foot and Mouth Disease Virus Antivirals. human cells with a luciferase reporter of 2A StopGo recoding; control for the full effect not named in the record. Potency, µM (series often up to 57.9 µM), without a hit: at the highest dose signal change, negative = less light. 1.2% of 410,000 active. AID 1159524, 2015; active = well fitted falling curve with a large enough effect; inconclusive = small, poorly fitted or top-dose-only effect; inactive = no such curve, though single readings can be large or run the other way; tested in HEK293T cells; further: on the % scale 0 is the no-effect control and ±100 the full control effect; nearly all actives have a fitted effect of over 45% in size; luciferase light after 4 h
NS1 inh: qHTS Assay for Inhibitors of Influenza NS1 Protein Function | Potency, µM (titrated, usually from 46.1 µM), for inactives: at the top dose activity, positive = more growth | AID 2326, 2010 | 0.4% of 270,000 active | S. cerevisiae slowed by influenza A NS1, growth recovery by OD600; active means well fitted rising curve with a large enough effect; inconclusive means small, poorly fitted or top-dose-only effect; inactive means no such curve, though single readings can be large or run the other way; further: nearly all actives have a fitted effect of over 50% in size
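Recovery from NS1-induced slow growth read by OD600 in budding yeast switched to galactose assay medium (pH 6.0, -URA) at 1:100 dilution. Compound 23 nl per well; the matching strain lacking NS1 serves as control.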
Marburg entry inh: qHTS for inhibitors of binding or entry into cells for Marburg Virus | Marburg virus pseudotyped entry inhibition, cell reporter; control for the full effect not named in the record; about a third of the inactives were read at about 46 µM | Potency, µM (doses to about 37.8 µM), without a hit: top-dose activity change, negative = inhibition, hits mostly inhibitors | 1.8% of 300,000 active | AID 540276, 2011; active = well fitted inhibition curve with a large enough effect; inconclusive = small, poorly fitted or top-dose-only effect, or effect the other way; inactive = flat fitted curve, though single readings scatter; tested in HEK293 cells; about a fifth of its hits are not listed in these tables; further: on the % scale 0 is the no-effect control and ±100 the full control effect; luciferase read-out
LASV entry inh: qHTS for Inhibitors of binding or entry into cells for Lassa Virus; Potency, µM (highest dose often 37.9 µM), without a hit: at the top dose activity change, negative = inhibition, usual class: inhibitors; 1.2% of 300,000 active; Lassa virus pseudotype entry inhibition, cell reporter; control for the full effect not named in the record; active means well fitted inhibition curve with a large enough effect; inconclusive means small, poorly fitted or top-dose-only effect, or effect the other way; inactive means flat fitted curve, though single readings scatter; tested in HEK293 cells; further: on the % scale 0 is the no-effect control and ±100 the full control effect; nearly all actives have a fitted effect of over 50% in size; luciferase read-out
RE007 growth inh: qHTS Assay for Inhibitors of the HIV-1 protein Vpr; S. pombe RE007 Vpr strain, BacTiter-Glo ATP luminescence, 24 h; control for the full effect not named in the record; Potency, µM (titrated, usually from 92.2 µM), inactives show at the top dose activity change, negative = less growth; 0.21% of 360,000 active; AID 651644, 2012; active = well fitted falling curve with a large enough effect; inconclusive = small, poorly fitted or top-dose-only effect; inactive = no such curve, though single readings can be large or run the other way;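 further: on the % scale 0 is the no-effect control and ±100 the full control effect; nearly all actives have a fitted effect of over 50% in size; the assay follows cell death caused by Vpr and the record does not say whether a fall means rescue or toxicity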
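Fission yeast strain RE007, carrying one chromosomally integrated HIV-1 vpr copy, was seeded at OD 0.01 in PMG+AL medium with 23 nL pinned compound. After 24 h at 30 °C and 99% humidity, viability was read by BacTiter-Glo luminescence.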
Numbers without * were called inactive; ? = inconclusive; nt = no result given; [ ] = remark or other dose. Unless noted, the call rests on the fitted dose curve; in most records, active means well fitted curve in the direction sought with a large enough effect; inconclusive means small, poorly fitted or top-dose-only effect, or another doubt; inactive means no such curve, though single readings can be large; an effect the other way counts as inactive or inconclusive. Potency means the concentration at half of the fitted maximal effect.

molecule	Cruzain Triton	Cruzain inh noDet	SARS PLpro yeast	StopGo reporter	NS1 inh	Marburg entry inh	LASV entry inh	RE007 growth inh
COc1ccc2sc(NC(=O)c3ccco3)nc2c1	0.9%	5%	-16%	nt	-123%	?	?	?
COc1ccccc1N1CCN(C(=O)c2onc(C)c2Cl)CC1	nt	nt	1%	?	-17%	nt	nt	-11%
Cc1ccsc1/C=N/n1c(-c2ccccn2)n[nH]c1=S	-4.8%	-7%	-15%	8%	?	3%	16%	-6%
CCOC(=O)CNC(=O)c1nn(-c2ccc(OCC)cc2)c(=O)c2ccccc12	-7.4%	?	-11%	-25%	-27%	24%[46.1 µM]	-8%	14%
COc1ccccc1-c1c(C)nn2c(N3CCOCC3)cc(C)nc12	nt	nt	-1%	?	-6%	nt	nt	24%
COc1ccccc1CCc1nnc(CCC(=O)NCCCOc2cccnc2)o1	nt	nt	25%	9%	-1%	nt	nt	2%
CCOc1cc(/C=C/c2cccc[n+]2C)ccc1O	nt	nt	-3%	-20%	-40%	nt	nt	-15%
COC(=O)C(NC(=O)c1c(C)nn(C)c1Cl)c1ccccc1 (stereo not given)	nt	nt	-2%	-15%	nt	7%	13%	16%
COc1ccccc1/C=C/CN1CCN(Cc2ccc(C)o2)C(CCO)C1 (stereo not given)	nt	nt	1%	-14%	-6%	?	-1%[46.1 µM]	-9%
COc1cc(OC)c(NC2(c3ccccc3)C(=O)c3ccccc3C2=O)cc1Cl	-5.4%	-2%	nt	-24%	nt	nt	0%[46.1 µM]	nt
CCc1sc(NC(=O)c2cc3ccccc3oc2=O)nc1-c1cccs1	-4.0%	?	1%	-17%	5%	16%	3%	0%
Cc1cccc(CCNCc2c(C(=O)O)c(C)n(-c3ccccc3)c2C)c1	nt	nt	1%	-6%	6%	nt	nt	6%
O=C(O)CC(C(=O)NCc1ccccc1)C1CCCO1 (stereo not given)	0.4%	8%	2%	-10%	?	2%	0%	?
CCOC(CNC(=O)c1cc2c(=O)n(CC)c3ccccc3c2s1)OCC	nt	nt	0%	-15%	-2%	?	?	0%
Cc1nc(-c2ccccc2)sc1C(=O)/C=C/c1ccc(Cl)cc1	1.8%	-15%	-2%	25µM*	1%	7%[46.1 µM]	-8%	5%
COc1ccc(NS(=O)(=O)c2ccc(O)c(NC(=O)c3ccc(S(=O)(=O)N4CCCC4)cc3)c2)cc1	nt	nt	1%	14%	2%	nt	nt	-3%
CC(O)[C@@H](O)[C@H]1CNc2nc(N)[nH]c(=O)c2N1 (stereo not given in full)	-7.9%	7%	nt	nt	-1%	15%	nt	nt
CCC1CN(C(=O)N2CCC(C(=O)NCCN(CC)CC)CC2)c2cc(C)ccc2O1 (stereo not given)	-6.9%	6%	nt	-11%	nt	nt	?	nt
COc1ccc(CNC(=O)C2=C(C)C(=O)OC23CCCCC3)cc1	-1.3%	-17%	nt	3%	nt	nt	-5%[46.1 µM]	nt
COc1ccc(NC(=O)c2c(C)noc2-c2snnc2C)cc1	nt	nt	-1%	12%	2%	10µM*	?	-11%

(continued)
molecule	Cruzain Triton	Cruzain inh noDet	SARS PLpro yeast	StopGo reporter	NS1 inh	Marburg entry inh	LASV entry inh	RE007 growth inh
O=C(Nc1ccccc1NS(=O)(=O)c1ccc(F)cc1)C1CCC1	nt	nt	-1%	2%	-3%	?	-15%[46.1 µM]	5%
COc1cccc(NC(=O)Nc2cc(C(=O)NC(C)C)ccc2N2CC3CC(C2)c2cccc(=O)n2C3)c1 (stereo not given)	nt	nt	-4%	-12%	-4%	nt	nt	-1%
Cc1ccc(S(=O)(=O)N2CCN(C(=O)COC(=O)CCOc3ccccc3C)CC2)c(C)c1	nt	nt	-2%	?	nt	1%	?	-7%
COc1ccc(CN(C(=O)CCC(=O)N2CCCCC2)c2nccs2)cc1OC	nt	nt	1%	-17%	-8%	-48%[46.1 µM]	8%[46.1 µM]	2%
COc1cc(S(=O)(=O)Nc2cccc3cn[nH]c23)c(OC)cc1C	nt	nt	1%	63%[activator]	-17%	nt	nt	-6%
COc1ccc(/C=N/NC(=O)c2ccc(NC(=O)c3cccc([N+](=O)[O-])c3)cc2)c(C(=O)O)c1OC	nt	nt	-3%	12%	13%	12%[46.1 µM]	3%	1%
Cc1ccccc1-n1ncc(C(C)NS(=O)(=O)c2sccc2C)c1C (stereo not given)	nt	nt	7%	?	-2%	-7%	-22%	7%
COC(=O)Cc1cc(OC)c(OC)cc1Cc1cc(OC)c(OC)cc1CC(=O)OC	0.2%	9%	5%	nt	-10%	-23%	-18%	-9%
CSc1nc2c(c(=O)[nH]1)C(c1ccccc1)C1=C(CC(C)(C)CC1=O)N2 (stereo not given)	nt	nt	0%	-8%	nt	?	1%	24%
Brc1ccc(C=Nc2ccc(Nc3ccccc3)cc2)s1	-3.1%	-4%	-11%	40%[activator]	?	?	-13%	-29%
CC(C)c1[nH]c(=O)c(C#N)c2c1COC(C)(C)C2	-2.2%	0%	7%	14%	14%	8%	-2%	-5%
O=C(NNC1=NCCC1)c1cccc(Br)c1	6.8%	10%	-1%	42%[activator]	2%	16%	?	-12%
Cc1cc(C)c(NC(=O)CCCN2CCN(C)CC2)c(C)c1	1.1%	-8%	-2%	-9%	-6%	?	8%	5%
CN1CCN(c2nc(Cl)ncc2F)CC1	nt	nt	0%	-7%	nt	-6%[46.1 µM]	-17%[46.1 µM]	-8%
COc1ccc(CCNC(=O)CC(NS(=O)(=O)c2ccc(NC(C)=O)cc2)C(C)C)cc1OC (stereo not given)	-0.9%	-3%	1%	2%	7%	10%	-2%	-21%
COCCCN(C(=O)c1cc(-c2ccco2)nc2ccccc12)c1c(N)n(Cc2ccccc2)c(=O)[nH]c1=O	nt	nt	1%	-2%	nt	-13%	5%	-4%
COc1ccc2c(CC(=O)Nc3ccc(OC)c(S(=O)(=O)N4CCOCC4)c3)coc2c1	-5.2%	?	13%	25%	-1%	2%	-1%	0%
CCCCN1C(=O)CC(Nc2ccc(CC)cc2)C1=O (stereo not given)	5.0%	12%	-11%	67%[activator]	-8%	18%	8%	-11%
COc1ccc(CCC(=O)OCC(=O)Nc2sccc2C#N)cc1	nt	nt	-2%	17%	nt	?	0%[46.1 µM]	1%
O=C(NCCc1c[nH]c2ccccc12)N[C@@H](Cc1ccccc1)C(=O)O	nt	nt	1%	1%	4%	6%[46.1 µM]	5%	12%

Profiles from above.
Record of `COc1ccc(CCNC(=O)CC(NS(=O)(=O)c2ccc(NC(C)=O)cc2)C(C)C)cc1OC` (stereo not given) : Cruzain Triton: -0.9%; Cruzain inh noDet: -3%; SARS PLpro yeast: 1%; StopGo reporter: 2%; NS1 inh: 7%; Marburg entry inh: 10%; LASV entry inh: -2%; RE007 growth inh: -21%
Record of `COc1ccc(CN(C(=O)CCC(=O)N2CCCCC2)c2nccs2)cc1OC` : Cruzain Triton: nt; Cruzain inh noDet: nt; SARS PLpro yeast: 1%; StopGo reporter: -17%; NS1 inh: -8%; Marburg entry inh: -48%[46.1 µM]; LASV entry inh: 8%[46.1 µM]; RE007 growth inh: 2%

Carrying on:
molecule	Cruzain Triton	Cruzain inh noDet	SARS PLpro yeast	StopGo reporter	NS1 inh	Marburg entry inh	LASV entry inh	RE007 growth inh
COc1cccc(C(=O)N(Cc2nc(-c3ccc(Cl)cc3)no2)C(C)C)c1OC	-6.0%	?	nt	0%	nt	-2%[46.1 µM]	-24%[46.1 µM]	nt
O=C(NN1C(=O)/C(=C/c2ccc(O)cc2)SC1=S)c1ccccc1O	nt	nt	-5%	-22%	4%	nt	nt	-7%
O=C(CSc1ccccc1)NCc1ccc2c(c1)CCN2C(=O)c1ccc(F)cc1	-1.8%	2%	nt	-3%	nt	nt	?	nt
CC(C)CCN1CCN(Cc2cccn2-c2cccnc2)CC1CCO (stereo not given)	nt	nt	1%	-12%	0%	nt	nt	-25%
CC(C)Cn1c(-c2ccc(S(=O)(=O)N3CCOCC3)cc2)csc1=Nc1cc(Cl)ccc1Cl	0.0%	4%	nt	?	nt	nt	?	nt
OCCNc1ncnc2c1ncn2Cc1ccccc1	-2.8%	5%	-1%	3%	-4%	5%	15%	-1%
CCOc1ccc(-c2cc3c(=O)n(Cc4nc(-c5cccc(OC)c5OC)oc4C)ccn3n2)cc1Cl	-0.6%	7%	nt	14%	nt	2%[46.1 µM]	0%[46.1 µM]	nt
CCOC(=O)/C(O)=C(\C#N)c1nc2ccccc2[nH]1	nt	nt	0%	?	nt	-8%[46.1 µM]	-2%[46.1 µM]	-9%
CCOC(=O)C1CCN(S(=O)(=O)c2cccc(C(=O)Nc3ccccc3)c2)CC1	nt	nt	1%	?	-12%	10%	4%	2%
Cc1ccc(C(=O)NC(=S)Nc2ccccc2C(F)(F)F)c(C)c1	-8.5%	-7%	-2%	-2%	9%	4%	8%	1%
CCc1ccc(CNC(=O)C(CC)n2nc(C)c3c(C)n(-c4ccccc4)nc3c2=O)cc1 (stereo not given)	0.8%	-9%	nt	0%	nt	nt	-2%[46.1 µM]	nt
O=c1c2oc3ccccc3c2n(Cc2ccccc2)c(=O)n1Cc1ccco1	-2.4%	2%	nt	0%	nt	nt	-1%[46.1 µM]	nt
CCOC(=O)c1sc(S(C)(=O)=O)c2c1CC(C)(C)C/C2=N/O	nt	nt	3%	-24%	3%	nt	nt	-1%
O=C(NN=Cc1ccc(F)c(F)c1)c1ccc(NS(=O)(=O)c2cccs2)cc1	nt	nt	-3%	10%	nt	17%	5%[46.1 µM]	-3%
Cc1c(C(=O)Nc2ccc(F)cc2)cn2c(nc3ccccc32)c1C#N	nt	nt	0%	-7%	0%	-11%[46.1 µM]	25%	-3%
N#Cc1c2c(c[nH]c1=O)CCN2Cc1ccccc1	-0.9%	-3%	1%	7%	2%	12%	13%	-11%
Cc1cccc(NC(=O)N2CCCC2)c1	nt	nt	-2%	0%	-3%	nt	nt	-9%

Outcome played no part in choosing rows; any-hit rate near 4.7%.
